High-throughput results: PubChem, Broad Institute
NOMO-1 viab: NOMO-1 AML cell viability reduction, primary screen, STK33 inhibitor project, CellTiter-Glo luminescence; 37,000 compounds, 7.5% hits; NOMO-1 AML viability, 72 h; inhibition, % (no concentration beside the values); AID 2330, 2010;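 active = most replicates above 80%; inconclusive = exactly half above 80%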;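 also: wells of about 30 µL received 25 nL stock; 0% = median of vehicle wells and 100% = reference inhibitor level; the first replicate is given; inactives centre near 10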
Starred values were filed as active, the others as inactive.

What do the screens show for `CC(C)NC(=O)N(C)C[C@@H]1OCCCC[C@@H](C)Oc2ccc(NS(=O)(=O)c3ccccc3)cc2C(=O)N([C@H](C)CO)C[C@@H]1C`?
NOMO-1 viab: 8

What do the screens show for `C[C@H](CO)N1C[C@H](C)[C@@H](CN(C)C(=O)NC2CCCCC2)Oc2c(NS(=O)(=O)c3ccccc3)cccc2C1=O`?
NOMO-1 viab: 16

Results for COC(=O)c1ccccc1NC(=O)Cn1c(C)ccc1C ?
NOMO-1 viab: 35

Results for Cc1ccc2nc(SCc3nc4ccccc4n3C)[nH]c2c1 ?
NOMO-1 viab: 6

Results for OCC(CO)(CO)NC(=S)Nc1cc(Cl)cc(Cl)c1 ?
NOMO-1 viab: 4

How did Cc1ccc(OCC(=O)Nc2ccc(Cl)cc2C(=O)O)cc1C do in these assays?
NOMO-1 viab: 16

How did C[C@@H]1CN([C@H](C)CO)C(=O)Cc2cc(NC(=O)Nc3ccc(C(F)(F)F)cc3)ccc2O[C@@H]1CN(C)S(=O)(=O)c1ccccc1 do in these assays?
NOMO-1 viab: 32

How did COc1ccc(CN(C)C[C@@H]2Oc3c(NC(=O)C4CCCCC4)cccc3C(=O)N([C@@H](C)CO)C[C@H]2C)cc1 do in these assays?
NOMO-1 viab: 98*

How did C[C@H]1CN([C@@H](C)CO)C(=O)Cc2cc(NC(=O)Cn3cnnn3)ccc2O[C@@H]1CN(C)Cc1ccc(-c2ccccc2)cc1 do in these assays?
NOMO-1 viab: 14

Results for CNC(=O)CSCc1ccc(Br)cc1 ?
NOMO-1 viab: 18

What do the screens show for `Cc1noc(C)c1S(=O)(=O)Nc1ccc2c(c1)C(=O)N([C@H](C)CO)C[C@@H](C)[C@@H](CN(C)S(=O)(=O)c1cccs1)O2`?
NOMO-1 viab: -2

What do the screens show for `C[C@@H]1CCCCO[C@H](CN(C)C(=O)c2ccccc2)[C@@H](C)CN([C@H](C)CO)C(=O)c2cc(NS(=O)(=O)c3ccc(Cl)cc3)ccc2O1`?
NOMO-1 viab: -5

How did CC(C)NC(=O)N(C)C[C@@H]1Oc2c(cccc2N(C)C)C(=O)N([C@@H](C)CO)C[C@@H]1C do in these assays?
NOMO-1 viab: -3

Results for COc1ccc(NC(=O)Nc2ccc3c(c2)C(=O)N([C@H](C)CO)C[C@H](C)[C@@H](CN(C)Cc2ccc(Cl)c(Cl)c2)OCCCC[C@@H](C)O3)cc1 ?
NOMO-1 viab: 43

How did C[C@H](CO)N1C[C@H](C)[C@H](CN(C)S(C)(=O)=O)Oc2c(NC(=O)C3CCOCC3)cccc2C1=O do in these assays?
NOMO-1 viab: -12

Results for CN1CCN(C(=O)CN(c2cccc([N+](=O)[O-])c2)S(C)(=O)=O)CC1 ?
NOMO-1 viab: 26

What do the screens show for `Cc1cccc(NC(=O)CCC(=O)O)c1`?
NOMO-1 viab: -1

How did Cc1ccc(Cl)cc1N(CC(=O)O)S(C)(=O)=O do in these assays?
NOMO-1 viab: 3

What do the screens show for `CCn1c(SCC(=O)Nc2ccc(Cl)c(Cl)c2)nnc1-c1cccnc1`?
NOMO-1 viab: -10

What do the screens show for `COc1ccccc1-c1nnc(SCC(=O)c2ccc([N+](=O)[O-])cc2)o1`?
NOMO-1 viab: 19

Results for N#CC(C#N)=C(N)Nc1ccccc1 ?
NOMO-1 viab: 31

How did CS(=O)(=O)N(CC(=O)Nc1cccc2ccccc12)c1ccc(I)cc1 do in these assays?
NOMO-1 viab: 4

Results for C[C@@H]1CN([C@@H](C)CO)C(=O)c2cc(NS(C)(=O)=O)ccc2O[C@@H]1CN(C)C(=O)Nc1ccc2c(c1)OCO2 ?
NOMO-1 viab: 6

Results for COc1ccc(S(=O)(=O)N(C)C[C@H]2Oc3c(NC(=O)NC(C)C)cccc3C(=O)N([C@H](C)CO)C[C@@H]2C)cc1 ?
NOMO-1 viab: -2

Results for COC(=O)c1ccc(NC(=O)CSc2nnc(C)s2)cc1 ?
NOMO-1 viab: 19

How did Cc1nn(CC(=O)Nc2ccc(C(=O)N(C)C)cc2)c(=O)c2ccccc12 do in these assays?
NOMO-1 viab: -3

How did COc1ccc(NC(=O)N(C)C[C@H]2Oc3ccc(NC(=O)Nc4cccc5ccccc45)cc3C(=O)N([C@H](C)CO)C[C@H]2C)cc1 do in these assays?
NOMO-1 viab: 22

How did COc1ccc(-n2nnnc2SCC(=O)c2ccc(O)c(O)c2)cc1 do in these assays?
NOMO-1 viab: 34

How did C[C@@H]1CN([C@H](C)CO)C(=O)Cc2cc(NC(=O)NC3CCCCC3)ccc2O[C@H]1CN(C)S(=O)(=O)c1ccc(F)cc1 do in these assays?
NOMO-1 viab: 14

What do the screens show for `O=C(COc1ccc2ccccc2c1Br)NCc1ccco1`?
NOMO-1 viab: 11

How did NS(=O)(=O)c1ccc(NC(=O)CC2c3ccccc3Oc3ccccc32)cc1 do in these assays?
NOMO-1 viab: 21

What do the screens show for `C[C@@H]1CCCCO[C@@H](CN(C)S(=O)(=O)c2cn(C)cn2)[C@@H](C)CN([C@H](C)CO)C(=O)c2cc(NC(=O)Nc3ccc(F)cc3)ccc2O1`?
NOMO-1 viab: -8

What do the screens show for `N#Cc1c(NC(=O)CSc2nc(-c3ccccc3)cc(C(F)(F)F)n2)sc2c1CCC2`?
NOMO-1 viab: 9

What do the screens show for `O=c1cc(-c2ccccc2)nc2nc(NCc3cccc([N+](=O)[O-])c3)[nH]n12`?
NOMO-1 viab: 25

How did CC12CC3(C)CC(C)(C1)CC(C(=O)NC(=S)NC(C)(C)C)(C2)C3 do in these assays?
NOMO-1 viab: 35

Results for O=C(CC1(O)C(=O)Nc2ccccc21)c1cccc(-n2cccc2)c1 (configuration not stated) ?
NOMO-1 viab: -1

Results for C[C@H](CO)N1C[C@H](C)[C@H](CN(C)CC2CC2)Oc2c(NS(=O)(=O)c3ccccc3)cccc2C1=O ?
NOMO-1 viab: 26

What do the screens show for `C[C@@H]1CN([C@@H](C)CO)C(=O)c2cc(NC(=O)C3CC3)ccc2O[C@H]1CN(C)S(C)(=O)=O`?
NOMO-1 viab: 15

What do the screens show for `CNC[C@@H]1Oc2ccc(NC(=O)Nc3ccc4c(c3)OCO4)cc2C(=O)N([C@H](C)CO)C[C@@H]1C`?
NOMO-1 viab: 6

What do the screens show for `C[C@@H]1CN([C@H](C)CO)C(=O)c2cccc(NS(=O)(=O)c3ccc(F)cc3)c2O[C@@H]1CN(C)S(C)(=O)=O`?
NOMO-1 viab: 22

Reprinted from the part before: 2 entries, followed by the next part.
What do the screens show for `CNC[C@@H]1Oc2ccc(NC(=O)Nc3ccc4c(c3)OCO4)cc2C(=O)N([C@H](C)CO)C[C@@H]1C`?
NOMO-1 viab: 6

What do the screens show for `C[C@@H]1CN([C@H](C)CO)C(=O)c2cccc(NS(=O)(=O)c3ccc(F)cc3)c2O[C@@H]1CN(C)S(C)(=O)=O`?
NOMO-1 viab: 22

What do the screens show for `COc1ccc(S(=O)(=O)N(C)C[C@@H]2OCCCC[C@@H](C)Oc3ccc(NC(=O)CCCN(C)C)cc3C(=O)N([C@H](C)CO)C[C@@H]2C)cc1`?
NOMO-1 viab: 8

What do the screens show for `Cc1cc(C(=O)Nc2cccc3c2O[C@H](CN(C)S(=O)(=O)c2ccc(Cl)cc2)[C@@H](C)CN([C@H](C)CO)C3=O)n(C)n1`?
NOMO-1 viab: 33

What do the screens show for `COc1ccc(NC(=O)Nc2ccc3c(c2)CC(=O)N([C@H](C)CO)C[C@H](C)[C@H](CN(C)C(=O)Nc2ccc4c(c2)OCO4)O3)cc1`?
NOMO-1 viab: 1

Results for COc1ccc(S(=O)(=O)N(C)CC(=O)Nc2ccc(I)cc2)cc1OC ?
NOMO-1 viab: 11

What do the screens show for `CCn1c(SCC(=O)c2ccccc2)nnc1-c1cccnc1`?
NOMO-1 viab: -1

What do the screens show for `COc1ccc(S(=O)(=O)Nc2cccc3c2O[C@@H](CN(C)C(=O)Nc2ccc(F)cc2)[C@@H](C)CN([C@H](C)CO)C3=O)cc1`?
NOMO-1 viab: 111*

What do the screens show for `CC1CC(=O)C2=C(O1)OC1(C)CCC3(O)C(C)(C)C=CC(=O)C3(C)C1C2` (configuration not stated)?
NOMO-1 viab: 19

What do the screens show for `C[C@@H]1CN([C@@H](C)CO)C(=O)c2cccc(NC(=O)C3CCCCC3)c2O[C@@H]1CN(C)Cc1ccc(Cl)c(Cl)c1`?
NOMO-1 viab: 96*

How did COc1ccc(OC(C)C(=O)Nc2cc(OC)cc(OC)c2)cc1 (configuration not stated) do in these assays?
NOMO-1 viab: 36

Results for C[C@H](CO)N1C[C@H](C)[C@@H](CN(C)Cc2ccc(C(=O)Nc3ccccc3N)cc2)Oc2ccc(NS(C)(=O)=O)cc2C1=O ?
NOMO-1 viab: -7

Results for CCc1cccc(OCC(=O)Nc2cccc(-c3nnc(-c4ccccc4)o3)c2)c1 ?
NOMO-1 viab: 21

What do the screens show for `Cc1ccc(S(=O)(=O)Nc2ccc3c(c2)CC(=O)N([C@H](C)CO)C[C@@H](C)[C@@H](CN(C)C(=O)Nc2ccc4c(c2)OCO4)O3)cc1`?
NOMO-1 viab: -8

What do the screens show for `O=C(Cn1cnc2ccccc2c1=O)Nc1ccc2c(c1)Cc1ccccc1-2`?
NOMO-1 viab: 31

Results for COc1ccc(C(=O)CCC(=O)Nc2ccc(C(=O)O)cc2)cc1OC ?
NOMO-1 viab: 31

How did COc1ccc(CN(C)C[C@H]2Oc3ccc(NS(=O)(=O)c4ccc(OC)cc4)cc3C(=O)N([C@@H](C)CO)C[C@H]2C)cc1 do in these assays?
NOMO-1 viab: 26

Results for C[C@H]1CN([C@@H](C)CO)C(=O)Cc2cc(NC(=O)Cc3ccccc3)ccc2O[C@@H]1CN(C)Cc1ccc(-c2ccccc2)cc1 ?
NOMO-1 viab: 43

What do the screens show for `C[C@H](CO)N1C[C@H](C)[C@H](CN(C)C(=O)Nc2ccc(C(F)(F)F)cc2)Oc2c(NC(=O)C3CC3)cccc2C1=O`?
NOMO-1 viab: 37

What do the screens show for `COc1ccc(S(=O)(=O)N(C)C[C@H]2Oc3ccc(NC(=O)CCCN(C)C)cc3C(=O)N([C@H](C)CO)C[C@H]2C)cc1`?
NOMO-1 viab: 7

How did Cc1ccc(S(=O)(=O)Nc2ccc3c(c2)C(=O)N([C@H](C)CO)C[C@@H](C)[C@@H](CN(C)S(=O)(=O)c2ccc(C)cc2)O3)cc1 do in these assays?
NOMO-1 viab: 7

Results for CNC(=S)N(Cc1ccco1)C1CC(=O)N(c2ccccc2)C1=O (configuration not stated) ?
NOMO-1 viab: 46

Results for O=C(Nc1ccccc1[N+](=O)[O-])c1cc(S(=O)(=O)Nc2ccccc2)ccc1Cl ?
NOMO-1 viab: -7

What do the screens show for `COc1ccc(NC(=O)N(C)C[C@@H]2Oc3ccc(NC(=O)Nc4ccc(F)cc4)cc3C(=O)N([C@H](C)CO)C[C@H]2C)cc1`?
NOMO-1 viab: -3

How did C[C@H]1CN([C@@H](C)CO)C(=O)c2cc(NC(=O)CCCN(C)C)ccc2O[C@@H]1CN(C)C do in these assays?
NOMO-1 viab: 13

How did C[C@H]1CN([C@@H](C)CO)C(=O)c2cc(NC(=O)C3CCCCC3)ccc2O[C@H]1CN(C)C(=O)Nc1ccc2c(c1)OCO2 do in these assays?
NOMO-1 viab: 3

Results for CN(CC(=O)O)S(=O)(=O)c1ccc(F)c2ccccc12 ?
NOMO-1 viab: -1

How did C[C@@H]1CN([C@H](C)CO)C(=O)c2cc(NC(=O)CCC(F)(F)F)ccc2O[C@@H]1CN(C)C(=O)Nc1cccc2ccccc12 do in these assays?
NOMO-1 viab: 12

What do the screens show for `Cc1ccc(NC(=O)C(=O)NCc2ccccn2)cc1C`?
NOMO-1 viab: 13

What do the screens show for `COCC1OC(OC(C)(C)C2CCC3(C)C(O2)C(O)CC2(C)/C(=C4\CCC(O)C(C)(CCC(O)C(C)(C)O)C4)CCC23)C(NC(C)=O)C(O)C1O` (configuration not stated)?
NOMO-1 viab: 27

What do the screens show for `CSc1ccccc1NC(=O)CN(c1cccc(C)c1)S(C)(=O)=O`?
NOMO-1 viab: 6

How did C[C@@H]1CN([C@@H](C)CO)C(=O)c2cc(NC(=O)C3CCCCC3)ccc2O[C@@H]1CN(C)CC1CC1 do in these assays?
NOMO-1 viab: -21

What do the screens show for `C[C@H](CO)N1C[C@H](C)[C@@H](CN(C)S(=O)(=O)c2ccc(Cl)cc2)Oc2c(NS(=O)(=O)c3ccc(F)cc3)cccc2C1=O`?
NOMO-1 viab: 28

What do the screens show for `Cc1c(Br)c([N+](=O)[O-])nn1CC(=O)Nc1cccc(C(F)(F)F)c1`?
NOMO-1 viab: inconclusive

Results for COc1ccc(-c2nc(SCC(=O)Nc3ccc(Br)c(C)c3C)n[nH]2)cc1 ?
NOMO-1 viab: 18

How did C[C@@H]1CN([C@H](C)CO)C(=O)c2cccc(NS(=O)(=O)c3ccc(Cl)cc3)c2O[C@H]1CN(C)Cc1ccc(C(=O)O)cc1 do in these assays?
NOMO-1 viab: 2

How did Cc1ccc(S(=O)(=O)Nc2ccc3c(c2)CC(=O)N([C@H](C)CO)C[C@@H](C)[C@H](CN(C)S(=O)(=O)c2ccc(C)cc2)O3)cc1 do in these assays?
NOMO-1 viab: 27

What do the screens show for `CC(C)NC(=O)Nc1cccc2c1O[C@H](CN(C)S(=O)(=O)c1cn(C)cn1)[C@@H](C)CN([C@@H](C)CO)C2=O`?
NOMO-1 viab: 15

Results for COc1ccc(CN(C)C[C@H]2Oc3c(NC(=O)Nc4ccc(C(F)(F)F)cc4)cccc3C(=O)N([C@@H](C)CO)C[C@@H]2C)cc1 ?
NOMO-1 viab: 101*

Results for O=C(Cn1c(C(F)(F)F)nc2ccccc21)NCCN1CCOCC1 ?
NOMO-1 viab: 21

4 compounds drawn at random from those above:
What do the screens show for `CSc1ccccc1NC(=O)CN(c1cccc(C)c1)S(C)(=O)=O`?
NOMO-1 viab: 6

What do the screens show for `CC(C)NC(=O)Nc1cccc2c1O[C@H](CN(C)S(=O)(=O)c1cn(C)cn1)[C@@H](C)CN([C@@H](C)CO)C2=O`?
NOMO-1 viab: 15

Results for CN(CC(=O)O)S(=O)(=O)c1ccc(F)c2ccccc12 ?
NOMO-1 viab: -1

How did C[C@@H]1CN([C@H](C)CO)C(=O)c2cc(NC(=O)CCC(F)(F)F)ccc2O[C@@H]1CN(C)C(=O)Nc1cccc2ccccc12 do in these assays?
NOMO-1 viab: 12

This is a subset (hit frequency here may not be typical).
